# Screens from PubChem.
# B2AR ag = human beta-2 adrenergic receptor agonism by FAP; AID 504454; Am2.2-beta2AR cells, FAP receptor internalization, flow cytometry; reference of the scale not given here; 0.43% of 340,000 active; response, % (no concentration beside the values);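 active = response above a set limit, near 3 SD of response in nonfluorescent compounds, cut at about 42% in these data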;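 note: stock transfer was 100 nL into about 11 µL; a reference agonist was the positive control; negative values mostly stem from fluorescent compounds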
# UCH37 DUB inh = blocks the human deubiquitinase UCH37 | 0.33% of 330,000 active | Q9Y5K5 | purified proteasome/UCH37, Ub-AMC cleavage fluorescence | AID 588478 | inhibition, % (test concentration not listed);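 active = mean of two replicates above 20%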;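 note: 0% = compound-free wells with enzyme and 100% = wells lacking proteasome; stock transfer was 100 nL into about 20 µL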
#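 Material: Human UCH37 enzyme supplied as purified proteasome complex | Schedule: 30 min compound-proteasome preincubation then 25 min substrate reaction, room temperature | Detection: AMC fluorescence from Ub-AMC cleavage, excitation 355 nm, emission 460 nm | Benchmarks: Wells without proteasome as full block, compound-free enzyme plus substrate as uninhibited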
# Vif A3G = inhibitors of Vif binding to APOBEC3G peptide, primary screen, biochemical, TR-FRET, GST-Vif 1-94, biotin-A3G peptide, dose response retest (AID 1117319); TR-FRET GST-Vif / biotin-A3G peptide binding; higher % means a stronger effect; test concentration not given here; strong numbers were not always called active; inhibition, %, or IC50 in µM where a hit was titrated; 0.57% of 260,000 active;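 active = above the screen mean plus three standard deviations and confirmed in dose response; inconclusive = results disagree or hit not tested in dose response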;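 note: Vif residues 1-94 fused to GST binding biotinylated APOBEC3G peptide 110-148; 0% = full assay without inhibitor and 100% = GST in place of GST-Vif; retest series ran down from 100 µM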
# E coli growth = blocks Escherichia coli growth; OD600, 23 h; stronger effect = lower value; OD600 absorbance (concentration not given with the values); 0.21% of 330,000 active;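 active = OD600 absorbance below the run mean of sample wells minus 3.6 SD, in any replicate, cut at about 0.56 in these data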;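 note: stock transfer was 300 nL into about 60 µL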
# Bfl-1 A1 inh = inhibitors of the anti-apoptotic protein A1, read as caspase activation. MEF A1-2A-BIM cells, Caspase-Glo 3/7 luminescence, 3 h; percent of clofoctol response, vehicle zero. caspase activation, % (test concentration not listed). 0.066% of 330,000 active;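 active = over half of replicate activation scores above 10%, or exactly half above 10 with the replicate mean above 10; inconclusive = replicate mean below 10 yet half the replicates above 10; inactive = over half of replicates below 10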;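 note: wells of about 30 µL received 50 nL stock; many hits fall short of the cut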
# LANA-H2A inh = blocks KSHV LANA binding to histone H2A/H2B. Q9QR71. cell-free LANA-H2A/H2B peptide, fluorescence polarization. inhibition, % (test concentration not listed). 0.6% of 320,000 active; in the data active = inhibition mostly above about 10%, no sharp cut-off; inactive = mostly below about 6.7%;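 note: stock transfer was 7.5 nL into about 10 µL; 0% = median of vehicle wells and 100% = median of positive control wells; one replicate is shown; the record names a cut of 25% in any replicate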
# Target sequence (Q9QR71 whole entry, looked up): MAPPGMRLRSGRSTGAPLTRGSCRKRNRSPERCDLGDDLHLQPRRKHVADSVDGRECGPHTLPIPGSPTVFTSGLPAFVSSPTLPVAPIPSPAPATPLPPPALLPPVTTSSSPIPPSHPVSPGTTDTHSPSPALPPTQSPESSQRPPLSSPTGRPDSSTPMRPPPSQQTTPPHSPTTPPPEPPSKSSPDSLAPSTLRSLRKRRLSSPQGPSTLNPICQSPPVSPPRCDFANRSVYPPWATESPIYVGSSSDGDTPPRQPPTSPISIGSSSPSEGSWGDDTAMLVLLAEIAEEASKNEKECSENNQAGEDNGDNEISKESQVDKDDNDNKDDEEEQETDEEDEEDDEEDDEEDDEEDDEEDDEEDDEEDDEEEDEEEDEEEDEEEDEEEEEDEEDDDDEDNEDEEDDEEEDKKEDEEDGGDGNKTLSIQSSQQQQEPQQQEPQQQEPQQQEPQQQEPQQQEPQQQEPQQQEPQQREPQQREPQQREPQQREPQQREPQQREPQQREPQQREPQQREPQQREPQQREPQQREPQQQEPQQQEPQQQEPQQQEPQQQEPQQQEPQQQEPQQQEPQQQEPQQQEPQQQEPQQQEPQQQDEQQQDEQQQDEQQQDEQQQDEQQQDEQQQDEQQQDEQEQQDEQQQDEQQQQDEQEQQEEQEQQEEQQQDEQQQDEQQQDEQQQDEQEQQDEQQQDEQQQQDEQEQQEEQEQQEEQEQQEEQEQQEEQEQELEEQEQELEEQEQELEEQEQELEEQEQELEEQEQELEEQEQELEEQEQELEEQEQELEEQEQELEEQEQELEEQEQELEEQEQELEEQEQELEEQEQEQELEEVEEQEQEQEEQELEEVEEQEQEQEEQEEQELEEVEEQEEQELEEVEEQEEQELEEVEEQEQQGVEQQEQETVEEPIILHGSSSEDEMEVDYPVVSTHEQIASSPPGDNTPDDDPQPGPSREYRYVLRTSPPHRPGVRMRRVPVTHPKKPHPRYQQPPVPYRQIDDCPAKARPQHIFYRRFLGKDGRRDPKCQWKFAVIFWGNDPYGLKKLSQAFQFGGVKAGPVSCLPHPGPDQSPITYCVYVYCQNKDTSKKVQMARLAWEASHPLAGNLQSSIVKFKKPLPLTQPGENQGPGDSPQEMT
# HNF4A DNA FP = change in binding of human HNF4 alpha to DNA; 0.3% of 360,000 active; P41235; HNF4a-FITC DNA binding, fluorescence polarization, 1 h; activity change, % at 10 µM; AID 1224865; in the data active = activity change above about 30%, passing the limit was not always enough;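 note: controls were the assay level and a saturating level of protein; the project sought stronger binding though the title names inhibitors; some compounds called inactive have numbers as strong as hits; positive values seem to mean higher polarization but the record does not say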
# Numbers without * were called inactive; ? = inconclusive; · = no result given; & = joins results of further samples.
compound	B2AR ag	UCH37 DUB inh	Vif A3G	E coli growth	Bfl-1 A1 inh	LANA-H2A inh	HNF4A DNA FP
CN(CC(=O)Nc1ccc(OC(F)(F)F)cc1)C(=O)/C=C/c1cc2c(cc1[N+](=O)[O-])OCO2	20.1	5.4	1.8%	0.604	-2.0	0.0	-3.7
COc1ccc(S(=O)(=O)Nc2ccccc2Cl)cc1NC(C)=O	-1.0	3.0	-4.4%	0.675	0.9	-5.8	-4.3
Cc1ccn2c(=O)c(NC(=O)c3ccc(Br)o3)c(C)nc2c1	-4.3	7.2	0.8%	0.716	0.5	-6.2	-4.4
COc1ccc(-c2[nH]ncc2CN2CCN(C3CCCCC3)C(=O)C2)cc1F	-5.9	·	20.9%	·	-0.2	-0.9	2.0
Cc1cc(=O)[nH]c(NN=Cc2c(Cl)cccc2Cl)n1	4.7	·	-4.6%	·	·	·	7.4
COc1cccc(/C=N/n2nnnc2N)c1	-3.3	·	?	·	-0.1	2.2	-2.6
CCOC(=O)c1[nH]c2ccccc2c1NC(=O)c1ccc(S(=O)(=O)N2CCOCC2)cc1	7.2	2.1	12.9%	0.707	0.1	1.1	-2.0
CCN1CCN(C2=C(NS(=O)(=O)c3ccc(C)cc3)C(=O)c3ccccc3C2=O)CC1	-2.7	18.0	·	0.68	-1.1	0.2	0.9
Cc1ccc(Cc2cc(C)n[nH]c2=O)cc1	-4.7	2.4	-4.6%	0.71	0.7	-6.1	0.4
COc1ccc(CN2CCN(C(=O)c3ccco3)CC2)cc1	6.6	3.2	0.1%	0.7	2.0	1.9	0.4
CCOC(=O)c1c(C)[nH]c(C)c1C(=O)COC(=O)c1ccc(Cl)c(S(=O)(=O)NCc2ccccc2)c1	-2.4	3.0	-0.1%	0.731	0.3	10.1	-3.8
CC(C)(C)C(=O)NC(=O)Nc1ccccc1C(F)(F)F	0.6	1.5	4.8%	0.638	-0.6	-1.1	-2.3
COc1cccc(CN(C)CC(=O)Nc2sc3c(c2C#N)CCC3)c1	-1.9	1.5	·	0.664	0.3	2.7	5.5
CC(C)C(=O)NNc1ccccc1	2.3	0.8	-0.6%	0.678	-0.4	2.2	-6.1
CN(C(=O)Cn1cc(C(F)(F)F)cc(Cl)c1=O)C1CCS(=O)(=O)C1 (stereo not drawn)	1.5	-0.9	-14.6%	0.713	0.2	-4.1	-2.7
COc1ccc(C(CC(=O)c2ccccc2)CC(=O)c2ccccc2)cc1	-4.4	2.7	-17.0%	0.644	-0.3	-1.2	-1.6
CCCn1c(SCC(=O)c2cc(C)n(-c3cc(C)on3)c2C)n[nH]c1=O	5.2	3.9	-9.7%	0.624	·	·	-0.8
CC(C)(C)NC(=O)[C@]1(C)CCC[C@@]2(C)C3CC[C@@]4(C)C[C@]3(CCC21)CC4=O (stereo partly drawn)	0.7	0.9	·	0.718	-0.3	1.7	2.0
COC(=O)C(C)Sc1nc2c([nH]c3ccccc32)c(=O)n1C (stereo not drawn)	5.6	2.2	-5.4%	0.729	0.0	-1.5	3.5
Cc1ccc(C2C(=O)N(C3CCC(C)CC3)CC(=O)N2C2CCCC2)cc1 (stereo not drawn)	-0.7	2.1	3.7%	0.712	0.6	4.3	20.1
NC(=O)C1CN(C(=O)c2nn(Cc3ccccc3)c(=O)c3ccccc23)c2ccccc2O1 (stereo not drawn)	-2.8	7.1	7.4%	0.64	·	·	4.3
CC(Oc1cc2oc(=O)c3c(c2cc1Cl)CCC3)C(=O)NCc1ccccn1 (stereo not drawn)	-17.1	-7.9	·	0.678	-0.4	-5.0	1.9
CN(C)/C=C(/C(=O)c1ccc(Cl)c(Cl)c1)S(C)(=O)=O	1.4	4.0	6.8%	0.695	0.1	5.7	3.5
CCOc1ccccc1Cn1c(=O)sc2ccccc21	5.3	3.9	-2.5%	0.675	-0.5	37.1*	-0.5
CCN(CC(=O)Nc1c(F)cccc1F)C(=O)Cc1ccc(S(=O)(=O)N2CCOCC2)s1	-6.6	-2.5	-3.3%	0.696	·	·	4.5
Cc1noc(C)c1COc1ccc(C(=O)N2CC(C)CC(C)C2)cc1 (stereo not drawn)	-1.6	1.9	-10.2%	0.669	0.0	3.8	4.0
CC1C/C(=N\NC(=O)c2cccnc2)CC(C)(C)C1 (stereo not drawn)	1.6	·	?	·	0.2	-0.3	0.9
CCN1C(=O)C(CC(=O)Nc2ccc(F)cc2)N(Cc2ccc3c(c2)OCO3)C1=S (stereo not drawn)	-2.4	2.1	15.2%	0.704	0.1	-1.8	0.0
CC(C)(C)c1ccc(-n2ncc3c2CCCC3NC(=O)CN2CCCCC2=O)cc1 (stereo not drawn)	1.2	4.5	·	0.678	-0.6	3.4	-0.8
CCOC(=O)c1ccc(NC(=O)CN2C(=O)C3C4C=CC(C4)C3C2=O)cc1 (stereo not drawn)	-3.1	-1.5	8.7%	0.71	0.5	1.1	4.5
COc1ccc(C(=O)NCCCOc2cccnc2)cc1OC1CCN(C(C)=O)CC1	4.7	0.5	·	0.718	0.1	2.6	-2.0
CC1(C)Cc2c(sc3c2C2=NCCN2C=N3)CS1	1.1	-1.5	-3.1%&21.2%	0.75	0.8	-6.0	0.6
Cc1c(CCO)sc[n+]1CC(=O)OCCC12CC3CC(CC(C3)C1)C2	-1.6	2.2	0.7%	0.694	0.5	0.8	-1.1
COc1ccccc1NC(=S)N(Cc1ccco1)Cc1cc2cc(C)c(C)cc2[nH]c1=O	1.6	-9.5	?	0.719	-0.2	0.4	0.3
CC(=O)N1CSCC1C(=O)O (stereo not drawn)	-8.1	-2.1	4.7%	0.731	0.4	-1.1	-5.4
CCCCC(=O)Nc1nnc(S(=O)(=O)N(CC)c2ccc(OC)cc2)s1	-1.1	2.9	0.3%	0.677	-0.6	3.2	-1.6
Cc1ccc(S(=O)(=O)Oc2ccc(/C=N/NC(=O)c3cccnc3)cc2)cc1	-0.4	·	-3.8%	·	-0.1	-2.7	1.9
CCOC(=O)CSc1nnc(Cc2ccccc2)n1CC1CCCO1 (stereo not drawn)	12.3	0.1	2.1%	0.683	-0.2	-8.5	0.9
Cc1nnsc1C(=O)NNc1c(Cl)cccc1Cl	8.0	1.4	-5.6%	0.476*	-0.1	-5.7	2.2
CC(Oc1ccc(Cl)cc1)C(=O)Nc1ccccc1C(=O)N1CCOCC1 (stereo not drawn)	-3.5	-1.1	·	0.7	?	0.1	-2.5
CC(=O)Nc1ccc(NC(=O)COC(=O)Cn2cnc3ccccc32)cc1	-3.4	0.7	-2.2%	0.715	-0.6	0.4	2.6
Cc1cc(C(=O)NC(C)c2ccccc2)c2cc(F)ccc2n1 (stereo not drawn)	0.9	0.2	-5.8%	0.689	-0.2	-2.1	1.9
CN1C(=O)[C@H]2[C@@H](/C=C/c3ccccc3)N3C(=O)CN(CCO)C(=O)[C@@]3(C)[C@H]2C1=O	3.3	0.9	·	·	0.5	0.6	3.2
CC(C)(C)c1ccc(/C=C/C(=O)Nc2nncs2)cc1	-0.6	0.2	27.5%	0.731	-6.0	-3.5	-1.2
CCC1CCCCN1CCCNC(=O)c1ccc2c(=O)n(CCOC)c(=O)[nH]c2c1 (stereo not drawn)	-5.8	-22.3	·	0.668	1.6	-4.3	-1.4
CCOC(=O)c1[nH]c(C)c(C(=O)Nc2ccc(F)cc2)c1C	1.4	4.9	5.4%	0.712	-0.4	2.0	-1.7
O=C(CSc1nnnn1-c1ccccc1)Nc1ccc(N2CCOCC2)c(Cl)c1	-9.3	-0.3	0.8%	0.71	0.1	-1.9	-2.7
COc1ccc(/C=C2\COc3ccccc3C2=O)cc1OC	11.5	2.5	·	0.662	0.9	2.7	2.5
CCCCOC(=O)C1=C(C)Nc2ncnn2C1c1ccc(OC)c(OC)c1 (stereo not drawn)	-5.6	6.6	-1.0%	0.665	-0.2	5.7	5.7
Cc1nn(-c2ccccc2)c2c1C(c1cccs1)C(C#N)=C(N)O2 (stereo not drawn)	0.8	·	4.7%	·	-0.2	-2.5	-0.9

# Continuation:
compound	B2AR ag	UCH37 DUB inh	Vif A3G	E coli growth	Bfl-1 A1 inh	LANA-H2A inh	HNF4A DNA FP
C=CCc1cccc(/C=N/NC(=O)CCCNc2ccc(C)cc2)c1O	-1.6	·	·	·	1.2	-0.7	-1.6
CC(Oc1ccccc1)c1ccn[nH]1 (stereo not drawn)	0.6	1.2	5.2%	0.721	-0.5	-2.6	-3.4
O=C(NC(Cc1ccccc1)C(=O)O)/C(=C/c1ccccc1)NC(=O)c1ccco1 (stereo not drawn)	-12.1	5.4	·	0.662	-0.3	-1.3	-4.7
CCCCC1CCC(C(=O)N(CCCC)c2c(N)n(CCCC)c(=O)[nH]c2=O)CC1 (stereo not drawn)	-3.1	1.4	-8.6%	0.734	0.7	-3.3	-0.9
Cn1nnnc1SCCNS(=O)(=O)c1ccccc1	1.0	0.9	2.6%	0.792	0.8	-0.1	-0.6
CCOc1ccccc1C(=O)N(Cc1ccc(C)o1)C1CCS(=O)(=O)C1 (stereo not drawn)	-4.1	1.5	-8.2%	0.704	0.3	4.4	1.0
Cc1ccc(NC(=O)CN(C)C(=O)CCCN2C(=O)c3ccccc3C2=O)cc1	-13.0	5.3	6.7%	0.731	-0.7	-4.5	0.8
CCOC(=O)C1CCN(c2c(NCCCN3CCCCC3)c(=O)c2=O)CC1	-5.0	5.3	2.2%	0.719	1.2	2.2	-2.7
C[C@H]1CC[C@]2(O[C@H](CCO)C[C@H](O)[C@H]2O)O1	-7.0	3.9	·	·	0.0	3.1	2.2
C=CCN1CC2(c3ccccc3)CN(CC=C)CC(c3ccccc3)(C1)C2=O	0.2	0.7	27.4%	0.679	-0.5	-5.4	-4.9
CCCC1S/C(=N/N=C/c2ccc(OC)cc2)N(Cc2ccc(OC)cc2)C1=O (stereo not drawn)	13.3	·	2.1%	·	0.1	-1.0	2.7
COc1ccc(OC)c(NC(=O)CC2Oc3ccccc3NC2=O)c1 (stereo not drawn)	2.2	0.7	-4.9%	0.679	-0.6	-9.7	0.8
CC(Oc1cccc(Cl)c1)C(=O)N1CCCN(C)CC1 (stereo not drawn)	-2.1	0.2	-6.7%	0.623	0.0	1.2	0.2
CCCn1c(-c2ccccc2)nc2c(=O)n(C)c(=O)[nH]c21	0.1	-33.3	-4.6%	0.748	0.7	2.2	-4.7
CC(C)C1Cc2nc(Cl)c(C#N)cc2CO1 (stereo not drawn)	-4.2	-1.5	·	0.658	0.4	1.6	12.4
COc1ccc(CCN2CC(C(=O)NCc3ccccc3)CCC2=O)cc1 (stereo not drawn)	3.0	1.2	·	0.67	·	·	-1.5
CC(C(=O)NCCc1ccc(F)cc1)N1CCN(Cc2ccccc2)CC1 (stereo not drawn)	-4.0	2.1	31.4%	0.697	-0.2	-4.4	0.9
CCOc1ccccc1N(CC(=O)Nc1cccnc1)S(=O)(=O)c1ccc(C)cc1	2.6	2.9	-5.7%	0.692	0.5	4.1	-1.2
Cc1ccc(OCCC(=O)Nc2ccccc2C(=O)NC2CC2)cc1	-2.3	5.3	8.2%	0.693	3.3	-3.5	4.3
Cc1ccc(/C=N/NC(=O)c2cccc(NC(=O)c3ccccc3Cl)c2)o1	13.6	·	-4.9%	·	0.0	-0.4	2.0
Nc1[nH]n(-c2c(Cl)cc(Cl)cc2Cl)c(=O)c1N=Nc1ccc(S(=O)(=O)Nc2ncccn2)cc1	4.1	10.6	·	0.702	0.3	0.3	-1.2
CC1=NN(c2ccccc2)C(=O)C1(C)C	-1.0	1.8	-4.9%	0.712	0.2	0.7	-2.3
CS(=O)(=O)c1ccc2c(c1)SC1=NC(=O)/C(=C/c3ccco3)C(=N)N12	-2.4	17.2	6.32µM*	0.6	-1.3	0.0	18.2
